rRNA inh HTS: inhibitors of bacterial rRNA selective over humanized ribosomes. E. coli WT GFP vs humanized-ribosome RFP mutants, fluorescence, 24 h; stronger effect = lower value; DMSO median 0, no signal -100. GFP signal change (wild-type ribosome), % (no concentration beside the values). 350,000 tested, 1.6% active. AID 720706;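 active = significant combined selectivity score with lowered wild-type GFP, culture density cut under 30%, mutant RFP and density less affected; inactive = any of these conditions unmet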; note: one replicate is shown; some compounds called inactive have numbers as strong as hits
AF4-AF9 inh: MLL-AF4/AF9 protein interaction inhibition. AlphaScreen, biotin-AF4 peptide binding to FLAG-AF9. inhibition, % at 10 µM. AID 651704. 350,000 tested, 0.47% active;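 active = every replicate reaching a set inhibition limit, whatever the replicate mean, cut at about 25% in these data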;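 note: 0% = plate neutral control median and 100% = total signal loss; the record names both 10 and 1 µM as test concentration; the first replicate is given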
Target sequence (P42568 whole entry, looked up): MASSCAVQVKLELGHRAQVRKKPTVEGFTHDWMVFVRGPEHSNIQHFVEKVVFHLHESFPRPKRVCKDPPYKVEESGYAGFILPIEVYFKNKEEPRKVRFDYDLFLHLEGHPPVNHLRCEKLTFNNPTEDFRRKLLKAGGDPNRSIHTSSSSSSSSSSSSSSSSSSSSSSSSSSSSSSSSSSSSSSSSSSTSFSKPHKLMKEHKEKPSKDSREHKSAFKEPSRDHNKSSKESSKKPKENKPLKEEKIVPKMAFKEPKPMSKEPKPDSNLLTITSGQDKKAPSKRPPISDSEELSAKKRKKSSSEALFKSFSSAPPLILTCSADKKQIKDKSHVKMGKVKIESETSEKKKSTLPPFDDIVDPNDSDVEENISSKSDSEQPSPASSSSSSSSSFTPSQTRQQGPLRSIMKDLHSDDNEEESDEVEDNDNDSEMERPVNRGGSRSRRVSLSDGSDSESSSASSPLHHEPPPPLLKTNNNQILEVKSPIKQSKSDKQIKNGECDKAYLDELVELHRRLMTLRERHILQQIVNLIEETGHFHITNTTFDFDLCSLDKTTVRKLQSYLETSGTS
rRNA inh HTS OD600: recorded beside rRNA inh HTS, whose call it bears; OD600 change, %; measured here: OD600 growth;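 optical density of the mix in the first replicate; 0 = DMSO median and -100 = no signal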
rRNA inh HTS RFP: also measured in rRNA inh HTS; calls as there; RFP signal change, %; measured here: RFP humanized mutant strains;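 first replicate; 0 = DMSO median and -100 = no signal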
The depositor's hits bear a star.

SMILES | rRNA inh HTS | rRNA inh HTS OD600 | rRNA inh HTS RFP | AF4-AF9 inh
CCCC(=O)Nc1cccc(NC(=O)Cc2ccc(Cl)cc2)c1 | 3 | 2 | -2.4 | 0.6
O=C(Cc1ccccc1)N1CC2(C1)[C@H](c1ccccc1)[C@@H](CO)N2S(=O)(=O)Cc1ccccc1 | -9 | -13 | 3.5 | -15
Cc1noc(C)c1NC(=O)N(C)C[C@@H]1OCCCC[C@H](C)Oc2ccc(NC(=O)CCC(F)(F)F)cc2C(=O)N([C@@H](C)CO)C[C@H]1C | -1 | 6 | -1.2 | 1.5
C[C@@H]1CN([C@H](C)CO)C(=O)c2cccc(NC(=O)Nc3ccc(C(F)(F)F)cc3)c2O[C@@H]1CN(C)Cc1ccc(C(=O)Nc2ccccc2N)cc1 | -9 | -19 | 2.1 | 1.0
C[C@@H]1CN([C@H](C)CO)C(=O)c2cc(Br)cnc2O[C@@H]1CN(C)C(=O)c1ccccn1 | 0 | -1 | -2.3 | -2.1
O=C([C@@H]1[C@@H](CO)[C@@H]2Cn3c(ccc(C4=CCCCC4)c3=O)[C@H]1N2)N1CCCCC1 | 0 | -1 | -1.3 | -3.5
O=C(Nc1ccc(F)cc1)N1CCCCN2[C@H](C1)[C@@H](c1ccc(C#Cc3ccccc3)cc1)[C@@H]2CO | -3 | 9 | 8.9 | -3.4
CCCNC(=O)N(C)C[C@@H]1Oc2ncc(C#CC3CCCCC3)cc2C(=O)N([C@H](C)CO)C[C@H]1C | -1 | 8 | -0.1 | -1.5
Cc1ccc(S(=O)(=O)N(C)C[C@@H]2OCCCC[C@@H](C)Oc3ccc(NC(=O)CCC(F)(F)F)cc3C(=O)N([C@H](C)CO)C[C@H]2C)cc1 | 1 | -9 | 1.3 | 0.3
C/C=C/c1ccccc1[C@@H]1[C@@H](C#N)N(C(=O)NC2CCCCC2)[C@H]1CO | -2 | 9 | -0.3 | -1.0
COCC(=O)Nc1ccc2c(c1)OC[C@@H](C)N(CCC(F)(F)F)C[C@@H](C)[C@@H](OC)CN(C)C2=O | 0 | 7 | -0.6 | 2.8
COc1ccccc1C#Cc1ccc2c(c1)O[C@H](CN(C)C)[C@@H](C)CN([C@@H](C)CO)S2(=O)=O | 3 | -18 | 16 | 13
COCC#Cc1cnc2c(c1)C(=O)N([C@@H](C)CO)C[C@H](C)[C@@H](CN(C)C(=O)Nc1cccc(F)c1)O2 | 5 | 13 | -1.5 | -1.1
CCCNC(=O)N(C)C[C@@H]1Oc2ncc(C#CC3CCCCC3)cc2C(=O)N([C@@H](C)CO)C[C@@H]1C | 4 | -4 | -0.2 | -0.5
CN1C(=O)c2cc(NC(=O)CC(F)(F)F)ccc2OC[C@H]2O[C@@H](CC(=O)NC3CCC3)CC[C@@H]21 | -2 | -10 | -2.0 | -12
CCS(=O)(=O)N1CC2(C1)[C@H](c1ccccc1)[C@H](CO)N2C(=O)C1CC1 | 0 | -4 | -1.3 | -1.4
Cc1ccc(CNC(=O)[C@H]2O[C@@H](n3ccc(N)nc3=O)[C@H](O)[C@@H]2O)o1 | 10 | 17 | -3.2 | -1.1
COCC(=O)N1CC2(C1)[C@H](c1ccc(-c3ccccc3)cc1)[C@@H](CO)N2C(C)=O | 0 | -5 | -1.2 | -1.8
C/C=C/c1ccc([C@@H]2[C@@H](CO)N(C(C)=O)C23CN(C(=O)c2cnccn2)C3)cc1 | 1 | 0 | -1.6 | 1.1
CCCC(=O)Nc1ccc2c(c1)C(=O)N(C)C[C@@H](OC)[C@@H](C)CN(C(C)=O)[C@H](C)CO2 | 3 | 4 | -3.9 | -0.9
CO[C@H]1CN(C)C(=O)c2cc(NS(=O)(=O)c3ccccc3)ccc2OC[C@H](C)N(Cc2cccnc2)C[C@H]1C | -7 | -8 | 0.5 | 1.0
COc1ccc(S(=O)(=O)N2CCC[C@@H]2C(=O)N2CCC[C@H]2C(=O)NCc2ccncc2)cc1C | 4 | 5 | -2.8 | -5.0
CO[C@H](CN(C)CC1CCOCC1)[C@@H](C)CN(C(=O)Nc1ccc(F)cc1)[C@@H](C)CO | 0 | -1 | -2.2 | 1.8
CCCC(=O)Nc1ccc2c(c1)C(=O)N(C)C[C@@H](OC)[C@H](C)CN(CCC)[C@H](C)CO2 | -2 | 5 | -0.1 | 1.5
CS(=O)(=O)N1CCCCN2[C@@H](CO)[C@H](c3ccc(C#Cc4ccccn4)cc3)[C@@H]2C1 | 5 | 9 | 0.1 | -1.6

Following part:
SMILES | rRNA inh HTS | rRNA inh HTS OD600 | rRNA inh HTS RFP | AF4-AF9 inh
CC(C)NC(=O)N(C)C[C@H]1OCCCC[C@H](C)Oc2ccc(NS(=O)(=O)c3cccs3)cc2C(=O)N([C@@H](C)CO)C[C@@H]1C | -4 | -4 | -1.4 | 0.0
CN(C)C(=O)C[C@@H]1C[C@@H]2c3cc(NC(=O)Nc4ccc(C(F)(F)F)cc4)ccc3O[C@@H]2[C@H](CO)O1 | 0 | -5 | -1.0 | 1.5
C[C@@H]1CN([C@@H](C)CO)C(=O)c2cc(NC(=O)Nc3ccc(F)cc3)ccc2O[C@H]1CN(C)Cc1ccc(Cl)c(Cl)c1 | -6 | -9 | 0.8 | -1.5
C[C@@H]1CCCCO[C@@H](CN(C)Cc2ccc(C(=O)O)cc2)[C@H](C)CN([C@@H](C)CO)C(=O)c2cc(N(C)C)ccc2O1 | 2 | 7 | -0.3 | -4.9
CNC[C@H]1Oc2cc(-c3cncnc3)ccc2S(=O)(=O)N([C@@H](C)CO)C[C@H]1C | -2 | 6 | 4.0 | -0.3
O=C(NCC[C@H]1CC[C@H](NC(=O)c2ccncc2)[C@@H](CO)O1)Nc1ccc(Cl)cc1 | -30 | -46 | 1.9 | 16
O=C(Nc1cc(F)ccc1F)N1CC(=O)N2[C@H](CO)[C@@H](c3ccc(-c4ccccc4)cc3)[C@@H]2C1 | -7 | -50 | 21 | -3.6
CCC(=O)N[C@@H]1C=C[C@@H](CC(=O)NCCN2CCCCC2)O[C@@H]1CO | -3 | 5 | -1.0 | -1.0
C[C@@H]1CN([C@H](C)CO)C(=O)c2cc(NC(=O)C3CC3)ccc2O[C@@H]1CN(C)C(=O)NC1CCCCC1 | 4 | 3 | 0.5 | -2.7
C[C@H]1CN([C@@H](C)CO)C(=O)c2cccc(NC(=O)C3CCCCC3)c2O[C@H]1CN(C)S(=O)(=O)c1cccs1 | -3 | -6 | -0.8 | 1.4
O=C(C1CCCCC1)N1CC(=O)N2[C@H](CO)[C@H](c3ccc(Br)cc3)[C@@H]2C1 | -1 | 0 | -0.1 | -3.0
CC(=O)N1[C@@H](CO)[C@@H](c2ccccc2)C12CN(S(=O)(=O)c1ccccc1)C2 | -1 | 11 | -0.7 | -1.7
c1cncc(CN2CCN(c3cc(-c4cnc5ccccc5c4)nc4ccnn34)CC2)c1 | 2 | 7 | -1.0 | 4.0
CC(=O)N(C)C[C@H]1Oc2ncc(C#Cc3cccc(F)c3)cc2C(=O)N([C@@H](C)CO)C[C@@H]1C | 3 | 4 | -1.0 | 3.3
CCCC(=O)N1CC2(C1)CN(C(=O)CC)[C@H](CO)c1c2c2ccc(OC)cc2n1C | -1 | 3 | -2.3 | -2.1
COCC(=O)Nc1ccc2c(c1)[C@@H]1C[C@@H](CC(=O)NCc3ccccc3OC)O[C@@H](CO)[C@@H]1O2 | 0 | -8 | 1.7 | 0.8
CCCCNC(=O)c1ccc(Cc2cn(C)c3ccccc23)nc1 | -8 | -4 | 1.5 | -0.2
O=C(O)C[C@H]1C[C@H]2c3cc(NC(=O)C4CCC4)ccc3O[C@H]2[C@@H](CO)O1 | 2 | 7 | 1.5 | -1.4
COc1cccc(S(=O)(=O)Nc2ccc3c(c2)OC[C@H](C)N(Cc2ccccc2F)C[C@H](C)[C@@H](OC)CN(C)C3=O)c1 | 1 | -6 | 1.4 | 0.0
COCCNC(=O)C[C@H]1CC[C@@H]2[C@H](COc3ccc(NC(=O)Cc4ccccc4)cc3C(=O)N2C)O1 | 2 | -1 | -1.3 | 0.8
C[C@@H]1CN([C@H](C)CO)C(=O)c2cc(NS(=O)(=O)c3ccccc3)ccc2O[C@H]1CN(C)Cc1ccc(-c2ccccc2)cc1 | -2 | -14 | 6.5 | -0.7
COc1cccc(NC(=O)Nc2ccc3c(c2)C(=O)N(C)[C@@H]2CC[C@@H](CC(=O)NCCc4ccccc4)O[C@@H]2CO3)c1 | -5 | -16 | 2.0 | 5.4
CCNC(=O)C[C@H]1CC[C@@H]2[C@H](COC[C@@H](O)CN2C(=O)Nc2ccc3c(c2)OCO3)O1 | -7 | -2 | -2.5 | 1.0
Cc1cc(F)ccc1C(O)c1ncc(-c2ccccc2F)[nH]1 (configuration not stated) | 3 | 4 | -1.4 | 4.5
C[C@@H]1CN([C@H](C)CO)C(=O)c2cc(NC(=O)Cc3ccccc3)ccc2O[C@@H](C)CCCCO[C@H]1CN(C)S(=O)(=O)c1ccccc1 | -5 | 13 | 0.1 | -1.8

Given with each value named: part of the list above.
CCCCNC(=O)c1ccc(Cc2cn(C)c3ccccc23)nc1
  rRNA inh HTS = -8
  rRNA inh HTS OD600 = -4
  rRNA inh HTS RFP = 1.5
  AF4-AF9 inh = -0.2

O=C(O)C[C@H]1C[C@H]2c3cc(NC(=O)C4CCC4)ccc3O[C@H]2[C@@H](CO)O1
  rRNA inh HTS = 2
  rRNA inh HTS OD600 = 7
  rRNA inh HTS RFP = 1.5
  AF4-AF9 inh = -1.4

COc1cccc(S(=O)(=O)Nc2ccc3c(c2)OC[C@H](C)N(Cc2ccccc2F)C[C@H](C)[C@@H](OC)CN(C)C3=O)c1
  rRNA inh HTS = 1
  rRNA inh HTS OD600 = -6
  rRNA inh HTS RFP = 1.4
  AF4-AF9 inh = 0.0

COCCNC(=O)C[C@H]1CC[C@@H]2[C@H](COc3ccc(NC(=O)Cc4ccccc4)cc3C(=O)N2C)O1
  rRNA inh HTS = 2
  rRNA inh HTS OD600 = -1
  rRNA inh HTS RFP = -1.3
  AF4-AF9 inh = 0.8

Pulled by structure from the entries so far (two):
SMILES | rRNA inh HTS | rRNA inh HTS OD600 | rRNA inh HTS RFP | AF4-AF9 inh
CCCC(=O)Nc1ccc2c(c1)C(=O)N(C)C[C@@H](OC)[C@H](C)CN(CCC)[C@H](C)CO2 | -2 | 5 | -0.1 | 1.5
CCNC(=O)C[C@H]1CC[C@@H]2[C@H](COC[C@@H](O)CN2C(=O)Nc2ccc3c(c2)OCO3)O1 | -7 | -2 | -2.5 | 1.0

New compounds follow.
SMILES | rRNA inh HTS | rRNA inh HTS OD600 | rRNA inh HTS RFP | AF4-AF9 inh
C[C@@H](NC(=O)C[C@H]1CC[C@@H](NC(=O)Cc2ccccn2)[C@@H](CO)O1)c1ccccc1 | 2 | -4 | -1.4 | 0.0
CNC[C@H]1Oc2cc(C#CC(C)C)ccc2S(=O)(=O)N([C@@H](C)CO)C[C@H]1C | 6 | 4 | 3.0 | 2.3
CSc1ncccc1C(=O)N1CCCC(Nc2ccc(F)c(F)c2)C1 (configuration not stated) | 2 | 0 | -2.8 | 2.6
COc1cccc(C#Cc2ccc3c(c2)O[C@H](CN(C)S(=O)(=O)c2ccccc2F)[C@H](C)CN([C@@H](C)CO)S3(=O)=O)c1 | 4 | 12 | -3.2 | -2.0
OC[C@@H]1CN(Cc2ccc3c(c2)OCO3)C[C@H](n2cnc3c(NC4CC4)ncnc32)O1 | 7 | 14 | -0.9 | 2.1
O=C(C1CCOCC1)N1CC[C@@H]2[C@H](CO)Nc3ccc(-c4ccc(F)cc4)cc3[C@@H]21 | 1 | -4 | 0.4 | -2.4
C[C@H](CO)N1C[C@H](C)[C@@H](CN(C)Cc2ccccc2)Oc2cc(C3=CCCC3)ccc2S1(=O)=O | 1 | 8 | 0.0 | 2.4
O=C(Nc1cccc(Cl)c1)N1C[C@H]2[C@@H](c3ccccc31)[C@@H](CO)N2Cc1cccnc1 | -43 | -62 | -6.9 | 1.9
C[C@@H]1CN([C@H](C)CO)C(=O)c2cc(NC(=O)Cc3ccccc3)ccc2O[C@@H](C)CCCCO[C@H]1CN(C)C(=O)C1CCCCC1 | -2 | -7 | 1.0 | -1.7
COc1ccc(-c2ccc3n(c2=O)C[C@H]2[C@H](CO)[C@@H](C(=O)N(C)C)N(CC4CC4)[C@@H]32)cc1 | 2 | 5 | -0.7 | -1.5
COC[C@@H]1CCCN1c1ccc2c(c1)O[C@@H](COCc1ccccc1)CN([C@H](C)c1ccccc1)S2(=O)=O | 5 | 6 | -3.1 | 0.3
COc1ccccc1C(=O)Nc1ccc2c(c1)C(=O)N(C)C[C@H](OC)[C@@H](C)CN(C(C)=O)[C@@H](C)CO2 | -2 | 6 | 0.2 | 2.9
CCCNC(=O)N(C)C[C@@H]1Oc2cc(C#CC(C)C)ccc2S(=O)(=O)N([C@H](C)CO)C[C@H]1C | -7 | -23 | -2.9 | 0.4
COc1cc(Cl)ccc1OC1(C)CCN(Cc2ccc(-c3ccccn3)cc2)C1 (configuration not stated) | -1 | -34 | 12 | 1.4
COc1ccccc1CN1[C@@H]2c3ccc(C4=CCCCC4)c(=O)n3C[C@H]1[C@H](CO)[C@H]2C(=O)N(C)C | -4 | -4 | 0.2 | 0.6

Screens deposited in PubChem BioAssay by Broad Institute.

Some of the compounds tested; count on the stated rates, not on these rows.
